Assay outcomes: PubChem, Vanderbilt University
GIRK2 act: activators of human GIRK2 potassium channels | 63,000 tested, 0.05% active | G protein-activated inward rectifier potassium channel 2 (Homo sapiens), P48051 | calls only for hits at 25 µM | HEK293-GIRK2 thallium flux, Thallos fluorescence;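 active = among the strongest 0.2% of first-round signals and kept after retests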;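 also: first round at about 10 µM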
Target sequence (P48051 whole entry, looked up): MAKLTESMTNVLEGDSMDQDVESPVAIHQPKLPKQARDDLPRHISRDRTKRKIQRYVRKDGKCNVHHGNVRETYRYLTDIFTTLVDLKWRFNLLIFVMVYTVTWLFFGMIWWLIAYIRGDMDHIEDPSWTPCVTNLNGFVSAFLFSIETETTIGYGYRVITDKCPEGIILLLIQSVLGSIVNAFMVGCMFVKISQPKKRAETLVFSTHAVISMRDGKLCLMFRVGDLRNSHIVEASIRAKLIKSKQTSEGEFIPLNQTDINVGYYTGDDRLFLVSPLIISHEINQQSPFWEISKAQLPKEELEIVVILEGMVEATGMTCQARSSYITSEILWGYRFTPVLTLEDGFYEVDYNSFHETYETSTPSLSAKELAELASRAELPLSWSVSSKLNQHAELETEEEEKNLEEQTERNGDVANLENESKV
Calls only; i = inactive.

SMILES	GIRK2 act
CC(C)c1ccc(N2C(=O)C3N=NN(Cc4nc(-c5ccc6c(c5)OCO6)no4)C3C2=O)cc1 (centres undefined)	i
CC(C)Sc1ncc(-c2ccccc2)n1Cc1ccco1	i
CC1CC(C)CN(c2nc3c(c(=O)n(C)c(=O)n3C)n2CC(=O)O)C1 (centres undefined)	i
CC(C)OCCCNc1ncnc2[nH]ncc12	i
CC(C)C(=O)Nc1c(-c2ccccn2)nsc1C(=O)NC(C)c1ccccc1 (centres undefined)	i
O=C(COc1ccccc1)Nc1cnc(N2CCN(c3ccccc3)CC2)nc1	i
CCCCSc1nc2c(c(=O)n(C)c(=O)n2C)n1Cc1ccccc1	i
COC(=O)c1ccc(N/C=C(\C#N)c2nc(-c3ccc([N+](=O)[O-])cc3)cs2)cc1	i
COc1ccccc1CNC(=O)c1csc(Nc2ccc(S(C)(=O)=O)cc2)n1	i
Cc1ccc(Cl)cc1NC(=O)Cc1cc(=O)[nH]c(SCc2ccc(F)cc2)n1	i
COC(=O)C[C@H]1[C@]2(C)C3=C(C)[C@H](c4ccoc4)C[C@H]3O[C@@H]2[C@H](OC(C)=O)C2[C@](C)(C(=O)OC)C=CC(=O)[C@@]21C (some centres undefined)	i
O=C(Cn1nc(-c2ccccc2)c2sc(N3CCCC3)nc2c1=O)N1CCc2ccccc21	i
Cc1nc2ccc(NC(=O)c3ccc4ccccc4n3)cc2c(=O)n1-c1ccccc1	i
Cc1noc(C)c1CCC(=O)N1CCN(C(=O)C2CC2c2ccc(F)cc2)CC1 (centres undefined)	i
Cc1noc(NS(=O)(=O)c2ccc(N/C=C(\C#N)c3nc4ccccc4n3C)cc2)c1C	i
Cc1cc(NC(=O)c2ccc([N+](=O)[O-])o2)n(-c2nc(-c3ccc(F)cc3)cs2)n1	i
Cc1cc(NCCN(C)C)n2nc(C)c(-c3ccc(Cl)cc3)c2n1	i
Cc1ccccc1Cn1c(=O)c2c(nc3n(-c4ccc(C(N)=O)cc4)c(C)cn23)n(C)c1=O	i
Cc1cccc(CS(=O)(=O)NCCc2nc(C)cc(C(F)(F)F)n2)c1	i
O=C(c1ccoc1)N1CCC(CNC(=O)C2(c3ccc(F)cc3)CC2)CC1	i

Two compounds picked at random from the list so far, as already listed:
SMILES	GIRK2 act
O=C(c1ccoc1)N1CCC(CNC(=O)C2(c3ccc(F)cc3)CC2)CC1	i
CC(C)C(=O)Nc1c(-c2ccccn2)nsc1C(=O)NC(C)c1ccccc1 (centres undefined)	i

(listing goes on)
SMILES	GIRK2 act
O=C(NCC1(O)CCc2ccccc21)C(=O)NC1CCCC1 (centres undefined)	i
O=C(COc1ccccc1)Nc1ccc(N2CCCCS2(=O)=O)cc1	i
COc1ccc(NC(=O)C2CCCN(c3ccc(-c4nc(C)no4)cn3)C2)cc1Cl (centres undefined)	i
COc1ccc(CC(=O)NC2CC(O)C(CO)C2)cc1 (centres undefined)	i
O=C(CSc1cc(C(F)(F)F)c2cc3c(cc2n1)OCO3)NCc1ccco1	i
CCOC(=O)c1ccc2nc(C)cc(NC(=O)c3ccccc3)c2c1	i
O=C(Nc1cc(C(F)(F)F)ccc1Cl)c1ccc(CSc2ncccn2)cc1	i
COc1ccc(C2C(C(N)=O)=C(C)Nc3nc(C)nn32)cc1 (centres undefined)	i
Cc1ccn(CC(C)NC(=O)c2cn(CC(O)c3cccs3)nn2)n1 (centres undefined)	i
O=C(c1ccc(NS(=O)(=O)c2cccc(F)c2)cc1)N1CCC(Cc2ccccc2)CC1	i
NNc1nnc(-c2ccc(F)cc2)c2ccccc12	i
COc1ccc(C(=O)Nc2nc(-c3ccccc3)ns2)cc1	i
O=C(CSc1nc(-c2cccc([N+](=O)[O-])c2)cs1)c1ccc2c(c1)OCCO2	i
COc1ccc(-c2cc3c(=O)n(Cc4nc(-c5ccc(C)cc5C)oc4C)ccn3n2)cc1	i
CC(Cc1cccs1)NC(=O)NCCOc1ccccc1 (centres undefined)	i
COc1ccccc1CNC(=O)c1ccc(Oc2nccnc2N2CCC(C)CC2)cc1	i
CCCCOc1ccc(C(=O)N2CCN(Cc3c(C)noc3C)CC2)cc1	i
O=C(NCCc1cccs1)c1ccc(Nc2nn3c(=O)c4ccccc4nc3s2)cc1	i
COc1cc(Nc2cc(C(=O)N3CCSCC3)nc3c(OC)cccc23)cc(OC)c1	i
CCC(=O)Nc1ccc2c(c1)CC(=O)N2C	i

Compounds above with two or more sulfur atoms:
SMILES	GIRK2 act
COc1ccccc1CNC(=O)c1csc(Nc2ccc(S(C)(=O)=O)cc2)n1	i
O=C(CSc1nc(-c2cccc([N+](=O)[O-])c2)cs1)c1ccc2c(c1)OCCO2	i
O=C(NCCc1cccs1)c1ccc(Nc2nn3c(=O)c4ccccc4nc3s2)cc1	i

Further compounds follow.
SMILES	GIRK2 act
COc1ccc(-c2nnc(C3CCCN(C(C)=O)C3)s2)cc1 (centres undefined)	i
Cc1nccn1CCNC(=O)C(=O)Nc1ccc2c(c1)N(C(=O)C(C)C)CCC2	i
O=C(CCn1ccc(=O)[nH]c1=O)NCCOc1ccc(-c2ccc(F)cc2)nn1	i
O=C(NCc1ccc(C(=O)c2cccs2)s1)c1ccc(F)c(F)c1	i
CC(C)(C)OC(=O)CN(c1cccc(Cl)c1)S(=O)(=O)c1cccn2cnnc12	i
C=CCn1c(=S)[nH]c2scc(-c3ccc(F)cc3)c2c1=O	i
CCCCN(C)C(=O)Cn1nc2c(-c3nc(-c4ccccc4)no3)cccn2c1=O	i
Cc1cc(C)n(-c2cc(SCC(=O)Nc3cccc(C(F)(F)F)c3)ncn2)n1	i
Cn1nc(CNC(=O)c2ccc(Br)o2)c2c1CCCC2	i
COc1cccc(-c2cc(C(=O)NC3CCN(c4ccc(-c5nc(C)no5)cn4)C3)[nH]n2)c1 (centres undefined)	i
Cc1ccc2c(Nc3ccc(S(N)(=O)=O)cc3)c(C(=O)N3CCSCC3)cnc2n1	i
Cn1c(C(F)(F)F)nn(CCNC(=O)c2ccc(Cl)s2)c1=O	i
Cc1ccc(NC(=O)c2cccc(-n3cnnn3)c2)c(C)c1	i
CC(C)OC(=O)COc1ccc2c(c1)O/C(=C\c1cc(Br)cc3c1OCOC3)C2=O	i
CCCCOc1ccc(NC(=O)N(CCc2cccs2)C2CC2)cc1	i
COc1ccc(-c2c(NC(=O)c3cccs3)oc3c(C)cccc3c2=O)cc1OC	i
CC(C)(C)N1CC(c2nc3ccccc3n2Cc2ccccc2Cl)CC1=O (centres undefined)	i
Cc1ccc(N2C(=O)C3N=NN(CC(=O)Nc4ccccc4F)C3C2=O)cc1C (centres undefined)	i
COC(=O)c1ccc(CN2CCC(COCc3ccc(Cl)cc3)CC2)o1	i
CCSc1ccccc1C(=O)NCC1CCN(C(=O)OC)CC1	i

Molecules shown so far that contain a tert-butyl group (2):
SMILES	GIRK2 act
CC(C)(C)OC(=O)CN(c1cccc(Cl)c1)S(=O)(=O)c1cccn2cnnc12	i
CC(C)(C)N1CC(c2nc3ccccc3n2Cc2ccccc2Cl)CC1=O (centres undefined)	i

Next part.
SMILES	GIRK2 act
CC(C(=O)Nc1ccc(S(=O)(=O)Nc2nccs2)cc1)n1nc(-c2ccc(F)cc2)ccc1=O (centres undefined)	i
Cc1ccccc1N1C(=O)CC(Nc2ccc(N(C)C)cc2)C1=O (centres undefined)	i
O=C1OC2CC1N(C(=O)c1cc(-c3ccccc3)n[nH]1)C2 (centres undefined)	i
CCS(=O)(=O)N1CCCc2ccc(NS(=O)(=O)c3cc(OC)ccc3OC)cc21	i
COc1ccc(NC(=O)c2nnn(-c3nccs3)c2C)cc1Cl	i
CCOC(=O)c1ccc(Nc2c(C(=O)N(CC)CC)cnc3nc(C)ccc23)cc1	i
CC1(C)Cc2c(sc(NC(=O)c3cccs3)c2-c2nc3ccccc3s2)C(C)(C)N1	i
COc1cccc(C(=O)Nc2ccc3c(c2)N(S(=O)(=O)c2ccccc2)CCC3)c1	i
Cc1cccc(N2CCN(C(=O)Cc3nnc(-c4sccc4C)o3)CC2)c1	i
Cc1ccc(C)c(S(=O)(=O)N2CCN(c3ccc(C)c(C)c3)CC2)c1	i
COc1nn(C)cc1C(=O)N1CCOC(c2cc(Cl)cc(Cl)c2)C1 (centres undefined)	i
CSc1ccc(CNC(=O)c2sccc2N(C)S(=O)(=O)c2ccccc2)cc1	i
CS(=O)(=O)c1ccc(NC(=O)c2cccc3ccccc23)cc1	i
Cn1nc(CNC(=O)Nc2cccc(Cl)c2)cc1-c1ccncc1	i
O=S(=O)(Cc1ccccc1)NCC#CCOc1ccc2c(c1)OCO2	i
O=C(CN1C(=O)C2(SCC(=O)N2c2cccc(Cl)c2)c2ccccc21)NCc1ccco1 (centres undefined)	i
CC1CCN(C(=O)CN2CCN(c3ccc4c(c3)OCO4)C2=O)CC1	i
COc1ccccc1OCC(=O)c1ccc(O)cc1O	i
COc1ccccc1NC(=O)C1CCN(c2ccc(=O)n(C)n2)CC1	i
CC(=O)c1ccc(NC(=O)CSc2cc(C)nc(-c3ccc(F)cc3)n2)cc1	i
CNS(=O)(=O)c1ccc(C(=O)Nc2ccccc2O)o1	i
COc1ccc(-n2nnc3c(N4CCN(C(=O)c5ccc(-c6ccccc6)cc5)CC4)ncnc32)cc1	i
Cc1ccccc1-c1ccc(N2CCN(S(=O)(=O)c3cccnc3)CC2)nn1	i
CCn1c(=O)c(C(=O)Nc2cccc(Cl)c2)c(O)c2ccccc21	i
O=C(Nc1nc(C(=O)Nc2cccc(Cl)c2)co1)c1ccsc1	i
C=CCn1c(=O)c2c(nc3n(-c4ccc(S(N)(=O)=O)cc4)c(C)cn23)n(C)c1=O	i
COc1ccc(C)cc1NC(=O)Cn1cccc(-c2nc(-c3ccccc3)no2)c1=O	i
CCOC(=O)C1CCN(C(=O)c2ccc(-n3cccn3)nn2)CC1	i
Cc1nccn1-c1cc(N2CCN(C(=O)Nc3ccc(F)cc3F)CC2)ncn1	i
CCOC(=O)c1cnc2c(C#N)cccc2c1NCc1ccccc1	i
O=C(CCS(=O)(=O)c1ccccc1)NC1CCCC(OC(=O)Nc2ccccc2)C1 (centres undefined)	i
COc1ccc(N(C)c2nnc(-c3ccc(NC(=O)C4CC4)cc3)s2)cc1	i
COc1cc(-c2nnc(NC(C)=O)o2)cc(OC)c1OC	i
O=C(CN1N=NC2C(=O)N(c3ccc(Cl)cc3)C(=O)C21)Nc1ccc2c(c1)OCCO2 (centres undefined)	i
O=S(=O)(Cc1ccc(Cl)cc1)N1CCCSCC1CN1CCCC1 (centres undefined)	i
COC(=O)c1ccc(C2CCN(C(=O)c3ccc(Cl)s3)CC2)cc1	i
CCNC(=O)Nc1cc(C)nn1-c1nc2c(c(=O)[nH]1)CCCC2	i
O=C1CCCN1c1cccc(NS(=O)(=O)c2ccc(Cl)s2)c1	i
CCOc1ccc(NS(=O)(=O)c2n[nH]c(C)c2C(=O)Nc2ccc(C(C)C)cc2)cc1	i
Cc1ccc(C)c(N2CCN(C(=O)CCn3c(=S)[nH]c4cc5c(cc4c3=O)OCO5)CC2)c1	i
O=C(/C=C/c1ccc(O)c(O)c1)OC(Cc1ccc(O)cc1)C(=O)O (centres undefined)	i
COc1ccc(C2c3c(oc4cc(C)c(Cl)cc4c3=O)C(=O)N2c2nccs2)cc1 (centres undefined)	i
CC(=O)O[C@H]1C[C@@]2(O)[C@@H](OC(C)=O)[C@@H]3[C@]4(OC(C)=O)CO[C@@H]4C[C@H](OC(C)=O)[C@@]3(C)[C@@H](OC(C)=O)[C@H](OC(C)=O)C(=C1C)C2(C)C	i
Cn1c2ccccc2c(=O)c2c(=O)n(Cc3ccco3)c(C3CCCCC3)nc21	i
COc1cc(NC(=O)COc2cccc(C)c2)ccc1N1CCCCC1=O	i
Cc1cc(C)cc(OCCNS(=O)(=O)c2ccc(C)c(C)c2)c1	i
COc1cc(OC)c(NC(=O)CCc2c(C)[nH]c(=O)n(C)c2=O)cc1Cl	i
COCCN1CCC(NC(=O)Cc2cccs2)CC1	i
CC1(C)OCC2(CO1)CN(C(=O)Cn1cnc3ccccc31)C2	i
O=C(NCc1ccco1)C1CCCN(c2ccc(-c3ccco3)nn2)C1 (centres undefined)	i
COC(=O)c1ccc2oc(=O)c(S(=O)(=O)N3CCCCCC3)cc2c1	i
COc1cc(OC)cc(C(=O)Nc2cnoc2)c1	i
NC(=O)c1ccccc1OCC#CCNC(=O)c1cnccn1	i
Cc1[nH]nc(S(=O)(=O)Nc2ccc(F)cc2)c1C(=O)Nc1ccc(OCc2ccccc2)cc1	i
Cc1cc(NC(=O)CSc2nnc(-c3ccc(=O)n(C)c3)n2C)no1	i
CCOc1ccccc1C(=O)NC1CCN(c2ncccc2-c2nc(C)no2)C1 (centres undefined)	i
Cc1nc(-c2cccs2)sc1CNC(=O)Cc1noc2ccccc12	i
O=C(c1ccc(S(=O)(=O)N2CCCCC2)cc1)N1CCN(c2ccccc2)CC1	i
CCCCN1CC(c2nc3ccccc3n2Cc2ccc(Cl)cc2)CC1=O (centres undefined)	i
CCCc1cc2c(=O)c(-c3ccc4c(c3)OCCCO4)coc2cc1OCC(=O)OCC	i

Further structures follow.
SMILES	GIRK2 act
O=c1c(-c2ccccc2)coc2c3c(ccc12)OCN(CCCN1CCOCC1)C3	i
COc1ccccc1C1(CNC(=O)c2cccc(F)c2)CCOCC1	i
Cc1ccc(NC(=O)Cn2nc3c(=O)n(-c4ccc(Br)c(C)c4)ccn3c2=O)cc1C	i
COc1ccc(Cl)cc1S(=O)(=O)NCCCn1ccnc1	i

Compounds shown so far containing a cyano group, in the order listed:
SMILES	GIRK2 act
COC(=O)c1ccc(N/C=C(\C#N)c2nc(-c3ccc([N+](=O)[O-])cc3)cs2)cc1	i
Cc1noc(NS(=O)(=O)c2ccc(N/C=C(\C#N)c3nc4ccccc4n3C)cc2)c1C	i
CCOC(=O)c1cnc2c(C#N)cccc2c1NCc1ccccc1	i

Only part of the results is shown. The share of hits here may be higher or lower than overall.
